2A StopGo: FMDV 2A StopGo reporter, luciferase signal | human cells with a luciferase reporter of 2A StopGo recoding; control for the full effect not named in the record | Potency, µM (titrated, usually from 57.9 µM), for the others: at the top dose signal change, negative = less light | hit rate 1.2% among 410,000; active = well fitted falling curve with a large enough effect; inconclusive = small, poorly fitted or top-dose-only effect; inactive = no such curve, though single readings can be large or run the other way; tested in HEK293T cells; also: nearly all actives have a fitted effect of over 45% in size; luciferase light after 4 h
RE007 growth inh: less growth of the S. pombe RE007 Vpr strain. hit rate 0.21% among 360,000. Potency, µM (doses to about 92.2 µM), for inactives: top-dose activity change, negative = less growth. S. pombe RE007 Vpr strain, BacTiter-Glo ATP luminescence, 24 h; control for the full effect not named in the record; active = well fitted falling curve with a large enough effect; inconclusive = small, poorly fitted or top-dose-only effect; inactive = no such curve, though single readings can be large or run the other way;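 also: nearly all actives have a fitted effect of over 50% in size; the assay follows cell death caused by Vpr and the record does not say whether a fall means rescue or toxicity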
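Fission yeast strain RE007, carrying one chromosomally integrated HIV-1 vpr copy, was seeded at OD 0.01 in PMG+AL medium with 23 nL pinned compound. After 24 h at 30 °C and 99% humidity, viability was read by BacTiter-Glo luminescence.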
Numbers without * were called inactive; ? = inconclusive; [ ] = remark or other dose. % is scaled to controls: 0 for no effect and ±100 for the full control effect; potency is read from the fitted curve at half-maximal effect.

SMILES	2A StopGo	RE007 growth inh
CCc1nc2c(OCC(=O)c3ccc(Cl)cc3Cl)cccn2c1N(C=O)Cc1ccc(OC)cc1	-8.9%	-0.7%
Cc1ccccc1-c1cc2nc(NCc3ccncc3)n(C)c(=O)c2s1	55.4%[activator]	-2.1%
COc1ccc(-c2cc(C(=O)Nc3ccc(NC(C)=O)cc3)[nH]n2)c(C)c1	58.3%[activator]	12.4%
COc1ccccc1NC(=O)C(CC(=O)O)Cc1cc(C)cc(C)c1 (stereo not drawn)	8.0%	0.6%
O=C(Nc1ccc(-c2ccco2)cc1)C1CCCN(Cc2ccco2)C1 (stereo not drawn)	-18.2%	-4.2%
CCc1nc2ccc(C(=O)NC3CCN(Cc4ccccc4)CC3)cn2c1N(C)CCN1CCOCC1	-2.0%	-9.6%
Cc1ccccc1S(=O)(=O)NC(=O)C1(C)CCN1C(=O)c1cccc(F)c1 (stereo not drawn)	7.7%	5.9%
COc1ccc(C(=O)N2CCC(C)(C(=O)NS(=O)(=O)C3CC3)C2)c(OC)c1 (stereo not drawn)	-7.9%	8.9%
CC1(Cc2ccc(OC(F)(F)F)cc2)C(=O)Nc2ccc(S(=O)(=O)NC3CCCCC3)cc21 (stereo not drawn)	-0.7%	6.7%
CC(=O)Nc1cccc(-c2cc(NC=O)c3ncc(-c4ccc(F)c(Cl)c4)n3c2)c1	-23.2%	-24.0%[18.4 µM]
Cc1ccc(Cc2c(-c3ccc(C)cc3)nc3cc(C)ccn23)cc1	0.0%	-17.9%
CCCCc1ccc(S(=O)(=O)NC(=O)C2(C)CCN2C(=O)Cc2ccccc2)cc1 (stereo not drawn)	-10.4%	17.5%
O=C(OCc1cn([C@@H]2CN(C(=O)c3cccs3)[C@@H](c3ccccc3)C[C@H]2O)nn1)c1ccccc1	-21.9%	-2.8%
CC(=O)C1CN(S(=O)(=O)c2ccc(C)cc2)C(c2ccccc2)CC1C (stereo not drawn)	1.9%	-0.6%
O=C(CCS(=O)(=O)c1ccc(F)cc1)Nc1nccs1	-14.7%	1.4%
Cc1c(C)n(CC(O)CSc2ccccc2)c2ccccc12 (stereo not drawn)	-16.4%	-2.3%
CCN(CC)Cc1c(C)[nH]c2ccc(NC(C)=O)cc2c1=O	-3.7%	5.9%
CCCNC(=O)C1(C)CCCN(Cc2csc3ccccc23)C1 (stereo not drawn)	-28.8%	-18.6%[18.4 µM]
O=C(Nc1c2c(nn1-c1ccccc1)CS(=O)(=O)C2)C1CC1	-21.3%	7.3%
OC1(C#Cc2c(-c3ccsc3)oc3ccc(N4CCOCC4)cc23)CCCCC1	-32.5%	-11.7%
Cc1ccn2c(=O)c(NC(=O)c3ccc4c(c3)OCO4)c(C)nc2c1	-17.9%	-2.7%
C[C@H]1CN([C@@H](C)CO)C(=O)CCCn2nncc2CO[C@@H]1CN(C)S(=O)(=O)c1ccc(Oc2ccccc2)nc1	-4.8%	2.8%
COC(=O)C[C@@H]1CC[C@@H](NC(=O)NC2CCCC2)[C@@H](CO)O1	-8.3%	9.5%
O=C1NC[C@@H](CCCCN2C[C@H](Cc3ccccc3)N(CCc3ccc(O)cc3)C(=O)C2=O)N(CCc2ccccc2)C1=O	-7.9%	-12.2%
CN(Cc1ccc(Cl)c(Cl)c1)C(=O)c1[nH]c(C(F)(F)F)nc1-c1ccccc1	-5.7%	0.0%
COc1ccc(S(=O)(=O)NCc2cccnc2)c(Cl)c1Cl	24.2%	4.8%
COC(=O)[C@@]12C[C@@H](CC(=O)NCc3ccc(OC)c(OC)c3)C(=O)N(Cc3ccc4c(c3)OCO4)C1=CCC(C)(C)C2	-18.2%	-0.7%
Cc1onc(-c2ccccc2)c1C(=O)OCC(=O)c1ccc(F)cc1	-18.9%	4.0%
C[C@H](CO)N1C[C@H](C)[C@@H](CN(C)C(=O)CC2CC2)Oc2cc(Br)ccc2S1(=O)=O	-24.1%	18.2%
Cc1ccc(C(=O)N2CCCC2(C)C(=O)NCC(C)C)cc1F (stereo not drawn)	-19.4%	-2.8%
O=C(OCC(=O)c1c[nH]c2ccccc12)c1ccc(F)c(S(=O)(=O)N2CCOCC2)c1	-15.4%	5.8%
Cn1nc(C(C)(C)C)cc1C(=O)N1CCCC(c2cc(C(=O)Nc3ccccc3Cl)no2)C1 (stereo not drawn)	?	-1.3%[18.4 µM]
COc1ccc(-c2nn(-c3ccccc3)cc2CNC[C@H]2O[C@@H](n3ccc(=O)[nH]c3=O)[C@H](O)[C@@H]2O)cc1	-10.1%	-9.3%
CCOc1ccc(/C=N/Nc2cc(N3CCOCC3)ncn2)c(O)c1	?	4.9%
CCc1nc2ccc(C(=O)NCCNC(C)=O)cn2c1N(C)CCCc1ccccc1	-11.4%	-27.2%
CNc1cnc(-c2cc(OC)c(OC)c(OC)c2)cn1	-3.4%	0.6%
COc1ccc2nc3n(c(=O)c2c1)-c1ccc(Cl)cc1C(=O)NC3Cc1ccc(O)cc1 (stereo not drawn)	-14.9%	2.5%
COC(C/C=C/[C@@H](O)[C@H](C)OCc1ccccc1)OC	-15.3%	-7.9%
O=C1[C@H]2[C@@H](c3ccccc3)N[C@]3(CCCN(CC4CCCCC4)C3=O)[C@H]2C(=O)N1Cc1ccccc1	-13.0%	3.3%
Nc1ncnn1Cc1ccccc1	-18.4%	-5.4%
CCCN(CCC)Cc1cc(=O)oc2cc(C)c(Cl)cc12	-2.9%	-13.6%
Cc1ccc(S(=O)(=O)NC(CC(=O)OCc2ccccc2)C(=O)OCc2ccccc2)cc1 (stereo not drawn)	-4.9%	1.0%
CCC(=O)N1Cc2cc(C(=O)NCCOC)nc(-c3cccc(-c4ccc(C#N)cc4)c3)c2[C@H]1CCO	-25.0%	-4.2%
O=C(Nc1ccc(F)cc1)C(c1ccccc1)N1CCN(c2cccc(C(F)(F)F)n2)CC1 (stereo not drawn)	-9.6%	7.0%
CN1OC[C@@H]2CN(C(=O)CCc3ccccc3)[C@H](c3cccc(Oc4ccccc4)c3)C[C@@H]21	-2.6%	-22.8%
O=C(Nc1cccc(C(F)(F)F)c1)Nc1ccc2nc([C@@H]3O[C@H](CO)[C@@H](O)[C@H](O)[C@H]3O)[nH]c2c1	-10.8%	-19.0%[18.4 µM]
COc1cccc(-c2cnc3c(NC=O)cc(-c4ccc(S(C)(=O)=O)cc4)cn23)c1	-16.5%	3.7%[18.4 µM]
COc1ccc(-c2ccc3c(c2)C2CC3CCN2C(=O)C2CCCCC2)cc1 (stereo not drawn)	-25.9%	4.3%
CCc1c(C)c(C#N)c2nc3ccccc3n2c1NCCCN(C)C	-12.4%	10.3%
COc1cc(NC(=O)[C@H]2O[C@@H](n3ccc(N)nc3=O)[C@H](O)[C@@H]2O)cc(OC)c1OC	-9.7%	3.7%
COc1ccc(-n2ncc(C(C)NS(=O)(=O)c3cc(C)sc3C)c2C)cc1 (stereo not drawn)	-1.7%	-12.2%
CC(C)(C)n1nnnc1C(c1ccccc1)N1CCN(c2ccccc2)CC1 (stereo not drawn)	8.0%	8.4%
O=C(O)CN1C(=O)C=CC1=O	-12.2%	-3.9%
O=C(O)c1ccccc1C(=O)Nc1ccc(Nc2ccccc2)cc1	18.9%	2.4%
COc1ccccc1Cn1c(=O)oc2ccccc21	-17.8%	5.4%
COC(=O)C[C@H](NC(=O)Cn1cc(C)c(=O)[nH]c1=O)C(=O)OC	-18.4%	-4.5%
N#Cc1nccc2ccc(OCc3ccc(Br)cc3)cc12	0.0%	12.5%
CCCCCCN1C[C@H](O)[C@@H](n2cc(C3CC3)nn2)C[C@@H]1c1ccc(C)cc1	-28.0%	-24.5%
CCOC(=O)C[C@H]1c2cc(F)ccc2S(=O)(=O)N1C(C)C	-3.3%	2.1%
CC1(C(=O)NS(=O)(=O)c2cccc(C#N)c2)CCN1C(=O)C1(c2ccc(Cl)cc2)CC1 (stereo not drawn)	37.9%[activator]	5.0%

(cont.)
SMILES	2A StopGo	RE007 growth inh
Cc1ccccc1CNC(=O)c1[nH]c(C(F)(F)F)nc1-c1ccccc1	-21.2%	-17.0%
CNc1cc(-c2cccc(N(C)C)c2)ncn1	-6.1%	-20.6%[18.4 µM]
CCOC(=O)C(=C1Nc2ccccc2N1)n1c(-c2ccco2)nc2ccccc21	-16.9%	-19.8%
CCC(CC)C(=O)N(C)c1c(C)nc2c(OCC(=O)C(C)(C)C)cccn12	-15.9%	3.4%
O=C(CC[C@H]1O[C@@H](n2ccc(=O)[nH]c2=O)[C@H](O)[C@@H]1O)N[C@H](Cc1ccccc1)C(=O)NCc1ccccc1	-12.4%	7.8%
COC(=O)C1=C[C@@H](C(=O)OC)[C@@H]2C3=C(C(=O)[C@@]2(C)NC(=O)c2ccccc2)[C@H](C)n2c(=O)n(C)c(=O)n2[C@@H]3C1	-10.8%	18.1%
CCCNC(=O)C1(C)CCCN(C(=O)c2c(F)ccc(C)c2F)C1 (stereo not drawn)	0.0%	0.5%[18.4 µM]
CCCCCCCCN1C(=O)[C@H](CC(=O)N2CCN(C(=O)C3CC3)CC2)C[C@@]2(C(=O)OCC)CCCC=C12	-16.9%	-26.4%
CCCCNC(=O)C(NC(=O)c1ccc2c(c1)OCO2)C(=O)c1ccccc1 (stereo not drawn)	-4.1%	-8.8%
COc1ccccc1N(C)S(=O)(=O)c1ccc(C(=O)N(C)Cc2cccc(OC)c2OC)cc1	?	-5.9%
CC(C)NC(=O)C1(C)CSCC(=O)N1CCCN1CCOCC1 (stereo not drawn)	-12.5%	-13.1%
OCC1CSC(=S)N1Cc1ccccc1 (stereo not drawn)	-16.0%	3.6%
O=c1c(-c2ccccc2)cocc1-c1ccccc1	44.3%[activator]	-10.2%
CCN(CC)C(=O)C1=C(C)N(Cc2ccc(F)cc2)C(=O)C(CC(=O)NCCCN(C)C)C1 (stereo not drawn)	-7.4%	-20.1%
O=C(CC1C[C@H](C(=O)N2CCCCC2)[C@@]2(CCc3ccccc3)c3[nH]c4ccccc4c3CCN2C1=O)NCCc1ccccn1 (stereo partly drawn)	-7.9%	5.5%
COC(=O)[C@@]12C[C@@H](CC(=O)N3CCC(c4ccccc4)CC3)C(=O)N(Cc3cccc4ccccc34)C1=CCC(C)(C)C2	-2.6%	0.0%
COc1cc(NCCCn2cnc(C(=O)Nc3ccc(C)c(C)c3)n2)cc(OC)c1OC	-12.8%	1.3%
C=CCCC(=O)N1C[C@H]2CON(C)[C@H]2C[C@H]1c1cccc(Oc2ccccc2)c1	-28.5%	-5.9%
OC(CSc1nnnn1-c1ccccc1)Cn1c2ccccc2c2ccccc21 (stereo not drawn)	-13.6%	8.4%
Cc1cc(Br)cn2c(Cc3cccc(F)c3)c(-c3ccc(C#N)cc3)nc12	0.0%	5.4%
Cc1cc(C)c(NC(=O)COC(=O)C2=COCCO2)c(C)c1	-22.9%	0.6%
O=C(NCCO)c1cccc(-c2cccc3nccn23)c1	-2.8%	-21.0%[18.4 µM]
COc1ccc(C(=O)N2CCC(C)(C(=O)NS(=O)(=O)C3CC3)C2)cc1 (stereo not drawn)	-12.8%	-4.5%[18.4 µM]
CCOC(=O)c1cc(-c2ccccc2)nn1CC1CC(c2ccc(Cl)cc2)=NO1 (stereo not drawn)	-27.4%	-9.6%
CCCCCCCCCCCCN1[C@@H](CC(=O)OC)c2cc(F)ccc2S1(=O)=O	?	-13.7%
O=C(NCc1ccc(Cl)c(Cl)c1)c1cc(C2CCCCN2C(=O)c2cccs2)on1 (stereo not drawn)	-23.9%	-1.3%
O=C(OCc1cn([C@@H]2C[C@H](c3ccccc3)N(Cc3cccs3)C[C@H]2O)nn1)c1ccccc1	0.0%	-18.5%
Cc1ccccc1C1N=C2Oc3ccccc3C=C2C(=O)N1 (stereo not drawn)	-7.5%	2.5%
CN(C)Cc1csc(NC(=O)Nc2cccc(Cl)c2)n1	0.8%	-0.4%
CC(=O)OC1CCC2(C)C(CCC3C4CC=C(C(C)=O)C4(C)OC(=O)CC32)C1 (stereo not drawn)	12.6µM*	?
CCOC(=O)N1CCN(C(=O)C[C@@H]2C[C@@]3(C(=O)OC)CC(C)(C)CC=C3N(Cc3ccccc3)C2=O)CC1	-4.4%	0.0%
COCCNC(=O)C1(C)CCCN(Cc2cc(-c3ccccc3)n(C)n2)C1 (stereo not drawn)	10.8%	-16.3%
COc1cccc(C(O)c2nc(-c3cccc(C#N)c3)cs2)c1 (stereo not drawn)	-21.4%	-7.0%[18.4 µM]

By substructure: the compounds so far containing a thiophene ring, fused or not (7)
SMILES	2A StopGo	RE007 growth inh
Cc1ccccc1-c1cc2nc(NCc3ccncc3)n(C)c(=O)c2s1	55.4%[activator]	-2.1%
O=C(OCc1cn([C@@H]2CN(C(=O)c3cccs3)[C@@H](c3ccccc3)C[C@H]2O)nn1)c1ccccc1	-21.9%	-2.8%
CCCNC(=O)C1(C)CCCN(Cc2csc3ccccc23)C1 (stereo not drawn)	-28.8%	-18.6%[18.4 µM]
OC1(C#Cc2c(-c3ccsc3)oc3ccc(N4CCOCC4)cc23)CCCCC1	-32.5%	-11.7%
COc1ccc(-n2ncc(C(C)NS(=O)(=O)c3cc(C)sc3C)c2C)cc1 (stereo not drawn)	-1.7%	-12.2%
O=C(NCc1ccc(Cl)c(Cl)c1)c1cc(C2CCCCN2C(=O)c2cccs2)on1 (stereo not drawn)	-23.9%	-1.3%
O=C(OCc1cn([C@@H]2C[C@H](c3ccccc3)N(Cc3cccs3)C[C@H]2O)nn1)c1ccccc1	0.0%	-18.5%

Screens from PubChem.

An excerpt. The share of hits here may be higher or lower than overall.
